LT uptake inh = qHTS Assay for Anthrax Lethal Toxin Internalization. Cells, anthrax lethal toxin internalization, FRET ratio (460/530). Potency, µM (doses to about 40 µM), without a hit: at the highest dose activity change, negative = inhibition, most hits filed as inhibitors. 70,000 tested, 0.67% active; active = well fitted falling ratio curve with the 530 nm signal flat; inconclusive = other ratio curves, or a change in one channel alone; inactive = flat curves in the ratio and both channels; the % refers to the ratio; note: % is set by controls: 0 for no effect and ±100 for the full control effect; nearly all actives have a fitted effect of over 50% in size; tested in ME-180 cells; beta-lactamase reporter
Prx2 Sm inh = Schistosoma Mansoni Peroxiredoxins (Prx2). AID 448, 2006. Schistosoma mansoni peroxiredoxin 2 (Prx2). Potency, µM. S. mansoni Prx2 activity coupled to TGR/GSH (TGR is thioredoxin glutathione reductase), NADPH fluorescence loss, qHTS; some inactives read as strong as hits. 65,000 tested, 0.07% active; active means full or partial inhibition curve with a strong effect at the top dose; inconclusive means weaker partial or single-point curve; inactive means no accepted curve; note: series up to 57 µM; many of its hits are not listed in these tables
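qHTS, coupled TGR/Prx2 format; 15 min compound preincubation at RT; reaction started with H2O2 (2.5 mM aliquot); kinetic NADPH fluorescence decrease, ex 365/em 450 nm.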
* hit, by the source's call; ? = inconclusive; . = not tested or not shown; & = joins results of further samples; [ ] = remark or other dose. Potency is the fitted concentration of half-maximal effect.

SMILES	LT uptake inh	Prx2 Sm inh
C[C@@H](Cc1ccc(OCC(=O)O)cc1)NC[C@H](O)c1cccc(Cl)c1	?	>57
O=C1CCCC2=C1C(c1cccs1)n1nc(SCc3ccccc3F)nc1N2 (configuration not stated)	2.8%	>57
C=CCSc1nc2c(c(=O)n(C)c(=O)n2C)n1CC	-4.4%	>57
CCn1nnnc1SCC(=O)N(C1CCCCC1)C1CCCCC1	-15.4%	>57
Cn1c(=N)n(CC(O)c2cccc3ccccc23)c2ccccc21 (configuration not stated)	-14.9%	>57
CC(=O)OCc1cc2cc(C)ccc2[nH]c1=O	.	>57
CN1C(C(=O)Nc2ccccn2)=C(O)c2ccccc2S1(=O)=O	-25.1%	>11.4&>57&>57
O=C(CN1CCOCC1)N1CCN(S(=O)(=O)c2ccccc2)C1c1ccccc1 (configuration not stated)	-1.9%	>57
CCOc1ccccc1N(CC(=O)N1CCOCC1)S(=O)(=O)c1ccc(SC)cc1	?	>57
C=CCn1c(CC#N)nnc1N1CCOCC1	-2.2%	>57
CCc1cc(=O)oc2cc(OC(C)C(=O)O)c(Cl)cc12 (configuration not stated)	?	.
CCSc1oc(-c2ccco2)nc1S(=O)(=O)c1ccccc1	12.2%	>57
O=C(CN(Cc1ccccc1F)C(=O)c1ccco1)NCc1ccc(F)cc1	4.3%	>57
COCC(=O)Nc1c(C(=O)Nc2ccccc2OC)oc2ccccc12	5.6%	>57
COc1ccc(CNc2nc(NCc3ccc(OC)cc3)n(S(C)(=O)=O)n2)cc1	-6.1%	>57
O=C(Cn1cnc2c(nnn2Cc2ccccc2F)c1=O)N1CCN(c2ccccc2)CC1	2.0%	>57
CCCCCC(=O)Nc1ccc2oc(-c3ccncc3)nc2c1	-11.6%	>57
CC(=O)NCCc1nc2ccccc2[nH]1	0.9%	>57
CCCc1nc2n[nH]c(N)c2c2c1CCC2	-2.9%	>57
O=C(Nc1ccc2c(c1)OCCO2)C1CCCN(c2ncccn2)C1 (configuration not stated)	?	>57
O=C(c1ccncc1)N1CCC2(CC1)CCN(C(c1ccccc1)c1ccccc1)CC2	?	>57
COCCNC(=O)CN1c2ccccc2CC1C (configuration not stated)	4.3%	>57
CCc1ccc(S(=O)(=O)NCCc2cn3ccccc3n2)s1	-5.3%	>57
CC(C)(Oc1ccc(-c2ccco2)cc1)C(=O)O	18.5%	.
CCOc1ccc(NC(=O)C2CCCN(S(=O)(=O)c3c(C)nn(C)c3C)C2)cc1 (configuration not stated)	3.9%	>57
Cc1ccc2cc3c(nc2c1)N(Cc1ccco1)CC3	3.2%	>57
O=C(NC1CCCCC1)c1ccc(N2CCCC2=O)cc1	18.4%	>57
CCN(CC)c1ccc(NC(=O)Nc2cccc(C(C)=O)c2)cc1	-11.7%	>57
CCc1nnc(NC(=O)CSc2nnc(-c3cc4ccccc4cc3O)n2CCOC)s1	8.0%	>57
CCOc1ccc(S(=O)(=O)NCCC(=O)OCN2C(=O)c3ccccc3C2=O)cc1	-5.5%	>57
Cc1cccc2sc(NC(=O)C3CCCN(S(=O)(=O)c4cccc5nonc45)C3)nc12 (configuration not stated)	-20.4%	>57
O=C(NC(C(=O)O)c1ccccc1)c1ccc(S(=O)(=O)N2CCOCC2)cc1 (configuration not stated)	-3.9%	>57
COC(=O)c1cc(NCc2c(F)cccc2Cl)ccc1N1CCOCC1	?	>57
CC(=O)N1c2c(cc(Br)cc2S(=O)(=O)N2CCN(C(=O)c3ccco3)CC2)CC1C (configuration not stated)	6.4%	.
CC1=CC(=O)C2=C(C)CC[C@@H]3[C@@H](OC(=O)[C@H]3C)[C@H]12	2.0%[3.58 µM]	>57
CCN(CCCNC(=O)CN(C)S(=O)(=O)c1cccc2nsnc12)c1ccccc1	?	>57
COc1cccc(NC(=O)C2CC(=O)OC23CCOC(C)(C)C3)c1 (configuration not stated)	-9.4%	.
CCOC(=O)C1CCCN(S(=O)(=O)c2cccs2)C1 (configuration not stated)	-2.1%	>57
Cc1nnc(NC(=O)Oc2ccccc2)s1	-5.1%	>57
COc1ccc(OC)c2[nH]c(=O)c(CCNC(=O)c3cc4ccccc4o3)cc12	-8.6%	>57

Pulled one by one from above:
SMILES	LT uptake inh	Prx2 Sm inh
CC(C)(Oc1ccc(-c2ccco2)cc1)C(=O)O	18.5%	.
O=C(NC1CCCCC1)c1ccc(N2CCCC2=O)cc1	18.4%	>57
O=C(c1ccncc1)N1CCC2(CC1)CCN(C(c1ccccc1)c1ccccc1)CC2	?	>57
CCOC(=O)C1CCCN(S(=O)(=O)c2cccs2)C1 (configuration not stated)	-2.1%	>57
Cc1nnc(NC(=O)Oc2ccccc2)s1	-5.1%	>57
CCOc1ccc(S(=O)(=O)NCCC(=O)OCN2C(=O)c3ccccc3C2=O)cc1	-5.5%	>57

Molecules listed so far with a thiophene ring, fused or not, in the order listed:
SMILES	LT uptake inh	Prx2 Sm inh
O=C1CCCC2=C1C(c1cccs1)n1nc(SCc3ccccc3F)nc1N2 (configuration not stated)	2.8%	>57
CCc1ccc(S(=O)(=O)NCCc2cn3ccccc3n2)s1	-5.3%	>57
CCOC(=O)C1CCCN(S(=O)(=O)c2cccs2)C1 (configuration not stated)	-2.1%	>57

The results go on.
SMILES	LT uptake inh	Prx2 Sm inh
CCOc1ccc(-n2c(Cc3cc(=O)[nH]c(=O)[nH]3)nnc2SCc2cccnc2)cc1	-8.5%	>57
N#CCCN1CCN(S(=O)(=O)c2ccc(C#N)cc2)CC1	4.9%	>57
COC(=O)C1=C(C)C(c2ccc(OC)cc2OC)NC(=O)N1 (configuration not stated)	-8.3%	>57
CCOc1cc(C2/C(=C(\O)c3cc(C)ccc3C)C(=O)C(=O)N2CCN(C)C)ccc1O (configuration not stated)	3.4%	>57
O=C(CCCc1ccccc1)NC1CCSC1=O (configuration not stated)	-9.7%	>57
Cc1cnc(C(=O)OCC(=O)NC2CCCC(C)C2C)cn1 (configuration not stated)	-12.2%	>57
N=c1n(CCN2CCCCC2)c2ccccc2n1CC(O)COc1ccccc1 (configuration not stated)	?	>57
c1ccc(NCc2nc(-c3ccccc3)no2)cc1	-26.5%	>57
CCCc1nc(N2CCN(C)CC2)c2sc(=S)n(-c3ccccc3)c2n1	?	>57
Cn1cnc2c(sc3nc(N4CCOCC4)c4c(c32)CC(C)(C)OC4)c1=O	-6.6%	>57
O=C(CCN1C(=O)c2ccccc2C1=O)Nc1ccc(-c2cn3ccsc3n2)cc1	4.3%	>57
CN1C(=O)N(C)C2(CC1(C)C)CC(C)(C)N(C)C(=O)N2C	0.0%	>57
CC1CCc2c(sc3nc(C4CC4)nc(SCC(=O)NCc4ccco4)c23)C1 (configuration not stated)	-10.6%	>57
N/C(CSc1nc(-c2ccccc2)c(-c2ccccc2)o1)=N\O	-28.2%	.
COc1ccc(CNc2n[nH]c(NCc3ccc(OC)c(OC)c3)n2)cc1OC	16.2%	>57
O=C(NCN1C(=O)C2C3C=CC(C3)C2C1=O)Nc1nncs1 (configuration not stated)	-2.5%	>57
CCNC(=O)CC1C(=O)N(c2ccc(F)cc2)C(=O)N1Cc1ccc(OC)cc1 (configuration not stated)	0.2%	>57
Cc1ccc(-n2nc(-c3cccs3)cc2C(=O)NCC2CCCO2)c(C)c1 (configuration not stated)	?	>57
COc1ccc(CCNC(=O)CN2C(=O)c3ccccc3S2(=O)=O)cc1	3.1%	>57
COc1cc(OC)cc(C(=O)N2CCN(S(C)(=O)=O)CC2)c1	-2.4%	>57
CCOC(=O)N1CCN(c2nc(C)c3c(n2)CC(C)CC3=O)CC1 (configuration not stated)	?	>57
COc1cccc(OCCNC(=O)c2cccc(OC)c2)c1	2.1%	>57
Cc1ccccc1-n1nnnc1SC1CCOC1=O (configuration not stated)	-18.8%	>57
COCCNC(=O)c1ccc2c(c1)ncn2-c1ccc(F)c(F)c1	-2.9%	>57
O=C(Cn1cc2c(n1)CCCC2)NCc1cccnc1	22.4%	>57
CCOc1cc(-c2ccc3c(c2)OCO3)cc(=O)c2c(C)oc(C)c12	8.6%	>57
COC(=O)c1c(C#N)c(N)nc2c1CCCC2	.	>57
Cn1c(=NC(=O)CSCC(=O)N2CCOCC2)sc2ccccc21	?	>57
CC(C)CCOCC(=O)Oc1ccccc1C(=O)O	.	>57
O=C1NC(=O)[C@@H]2C3c4ccccc4C=CN3[C@H](C(=O)c3cccs3)[C@H]12 (some centres not stated)	?	>57
CCOc1ccccc1-c1nc(SCC(=O)O)n[nH]1	-11.1%	.
O=c1c(-c2ccc(Cl)cc2)nc2cnc(N3CCNCC3)nc2n1Cc1ccc(F)cc1	?	>57
CC(=O)c1cccc(NC(=O)C2CC(=O)N(c3cccc(C)c3C)C2)c1 (configuration not stated)	-25.0%	.
O=C1CC(c2cccc(Cl)c2)CC(O)=C1C=NCCCO (configuration not stated)	-2.2%	>57
CC(=C1C(=O)c2ccccc2C1=O)N1CCN(c2ccccn2)CC1	12.3%	>57
CC(NC(=O)C1CCCCC1)c1ccc2c(c1)OCCO2 (configuration not stated)	5.5%	>57
COc1ccc(CNC(=O)CN2CCC(C(=O)c3ccc(OC)cc3)CC2)cc1	-13.1%	>57
O=C(CC1C(=O)NCCN1C(=O)c1ccc(F)cc1)OCc1ccccc1 (configuration not stated)	11.7%	>57
COc1ccc(CCNS(=O)(=O)c2cccs2)cc1	0.0%	>57
Cc1ncoc1C(=O)Nc1ccccc1C(N)=O	-18.1%	>57

Individual results from the entries so far.
LT uptake inh with `CCc1ccc(S(=O)(=O)NCCc2cn3ccccc3n2)s1` → -5.3%
Prx2 Sm inh with `COCC(=O)Nc1c(C(=O)Nc2ccccc2OC)oc2ccccc12` → >57

Already shown: an excerpt of the list.
SMILES	LT uptake inh	Prx2 Sm inh
CCOC(=O)N1CCN(c2nc(C)c3c(n2)CC(C)CC3=O)CC1 (configuration not stated)	?	>57
COc1cccc(OCCNC(=O)c2cccc(OC)c2)c1	2.1%	>57

Further structures:
SMILES	LT uptake inh	Prx2 Sm inh
Cc1ccccc1-c1nc(N2CCNCC2)c2ccccc2n1	-0.5%	>57
CCCc1nnc(NC(=O)CSc2ncn[nH]2)s1	-3.0%	.
CC1(C)COC(Nc2ccc(Cl)cc2)=N1	-1.5%	>57
CC(C)(C)NC(=O)C1CC(=O)OC12CCCCC2 (configuration not stated)	-21.4%	>57
c1csc(-c2nn3c(-c4ccncc4)nnc3s2)c1	.	>57
CCOC(=O)C1CCN(c2c(N3CCCC(C(=O)OCC)C3)c(=O)c2=O)CC1 (configuration not stated)	?	>57
O=C1c2ccccc2C(=O)N1Cc1nc2ccccc2c(=O)n1CCCN1CCOCC1	.	>57
CS(=O)(=O)N(CC(=O)Nc1ccc2c(c1)OCCO2)Cc1ccccc1	.	>57
O=C(Cn1cccc1)N1CCc2ccccc21	7.6%	>57
Cc1ccc(-c2nnn(CC(=O)N(CC(=O)NCC3CCCO3)c3ccccc3)n2)o1 (configuration not stated)	-0.8%	>57
CC(C)[C@@]1(NC(=O)[C@@H]2C[C@H]3c4cccc5[nH]cc(c45)C[C@@H]3N(C)C2)O[C@]2(O)[C@H]3CCCN3C(=O)CN2C1=O	-4.5%[3.58 µM]	>57
COc1ccc(CCNC(=O)CNCC2CCCO2)cc1OC (configuration not stated)	1.0%	>57
Cc1cc(C)c2[nH]c(=O)c(C(c3nnnn3CC3CCCO3)N3CCCC(C)C3)cc2c1 (configuration not stated)	12.5%	>57
COc1ccc(Cl)cc1S(=O)(=O)Nc1cccc(C(=O)O)c1	2.0%	>57
CC(=O)N(c1ccc(N(C(C)=O)S(=O)(=O)c2cccs2)cc1)S(=O)(=O)c1cccs1	14.3%	>57
CCOC(=O)c1[nH]c(C)c(CN(Cc2ccco2)C(=O)C(F)(F)F)c1C	-13.2%	.
COc1ccc(N2CCN(C(CNS(=O)(=O)c3cccs3)c3cccnc3)CC2)cc1 (configuration not stated)	15.5%	>57
O=C(CN(CCO)c1ccccc1)NC12CC3CC(CC(C3)C1)C2	-14.2%	>57
CNCCC=C1c2ccccc2CCc2ccccc21	?	>57&>57&>57
CC(=O)Nc1cc(C(=O)N2CCC3(CC2)OCCO3)ccc1S(=O)(=O)c1ccc(C)cc1	0.3%	>57
COc1cccc(N2CCN(Cc3cccnc3)CC2)c1	-7.1%	>57
N[C@@H](CP(=O)(O)O)C(=O)O	-12.0%[8 µM]	>57
CC(C)C(CO)NC(=O)CC(=O)NC(CO)C(C)C (configuration not stated)	-5.3%	.
CC(C)Oc1ccc(C(=O)N(Cc2ccco2)C2CCS(=O)(=O)C2)cc1 (configuration not stated)	-9.8%	>57
COCCNC(=O)c1ccc(Cl)c(Cl)c1	-3.1%	>57
COc1cc(-c2ccc(N=C=O)c(OC)c2)ccc1N=C=O	?	.
CC1(C)NC(=O)N(c2ccc([N+](=O)[O-])c(C(F)(F)F)c2)C1=O	-11.9%	>57&>57&>57
C=CCn1c(SCCC(=O)O)nnc1-c1cccs1	-12.8%	.
COc1cccc(-c2cc(NCc3ccc(OC)cc3OC)ncn2)c1	?	>57
Cc1cc(C(=O)CSc2nnc(N)s2)c(C)n1CCc1ccc(F)cc1	-6.5%	>57
CCOC(=O)N1CCN(C(=O)c2ccc(CS(=O)(=O)c3ccccc3OC)o2)CC1	?	>57
Cn1c(Cn2nnc3ccccc32)nnc1SCC(N)=O	1.0%	>57
Cc1cccc(-n2c(N)cc(=O)nc2SCC(=O)Nc2cc(C)on2)c1	-9.7%	>57
CC(=O)O[C@H]1C[C@H]2CC[C@@H]3[C@H]4C[C@@H]([N+]5(C)CCCCC5)[C@@H](OC(C)=O)[C@]4(C)CC[C@@H]3[C@@]2(C)C[C@@H]1[N+]1(C)CCCCC1	8.1%	>57

Screens: PubChem, National Center for Advancing Translational Sciences (NCATS)

This is a subset; the hit share may differ from the screen's.
